# PrP 5UTR inh = inhibition of PrP 5' UTR reporter expression. cell-based PrP 5' UTR mRNA reporter, plate reader. inhibition, % (test concentration not listed). 0.35% of 340,000 active. AID 488862;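 active means every replicate at 50% or more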;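 further: 0 = median of the neutral control wells; tested in H4 reporter cells; numbers are from one replicate; inactives centre near -14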
# Sa ugtP lethal = compounds lethal to S. aureus RN4220 ugtP deletion mutant. OD600 growth, 16 h; some inactives read as strong as hits. growth inhibition, % (concentration not given with the values). 0.54% of 330,000 active. AID 1259309;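 active means z-score under -3 and OD600 up to 0.15 on both plates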;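 further: plate controls were untreated wells for no effect and antibiotic for full effect; wells of about 80 µL received 100 nL stock; the first replicate is given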
# BJeLR viability = kills HRASV12-expressing BJeLR cells; 0.17% of 300,000 active; inhibition, % (no concentration beside the values); BJeLR (HRASV12) viability, CellTiter-Glo ATP luminescence, 48 h; reference of the scale not given here; AID 1554;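 active means replicate mean above 50%; inconclusive means above 50% but judged a plate artefact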;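 further: 50 nL library stock added to about 25 µL; numbers are from one replicate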
# Mtb hypoxia rep = reduces hypoxia-regulated biosensor signal in M. tuberculosis. 0.1% of 300,000 active. AID 1159583. fluorescence inhibition, % (test concentration not listed). M. tuberculosis hypoxia-regulated fluorescent reporter, fluorescence;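 active means 35 to 45% if threefold the growth effect, above 45% if 1.5-fold the growth effect; inactive means the rest, general growth blockers included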;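 further: wells of about 50 µL received 100 nL stock; 0% = vehicle wells and 100% = reference inhibitor wells; whole bacteria with a GFP reporter of the hypoxia response; strong numbers were not always called active; many hits fall short of the cut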
# Sa RN4220 lethal = S. aureus RN4220 growth inhibition. OD600, 16 h. inhibition, % (test concentration not listed). 0.33% of 330,000 active. AID 1259311;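 active means z-score of -3 or lower and OD600 up to 0.18 on both plates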;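 further: plate controls were untreated cells for no effect and reference antibiotic for full effect; stock transfer was 100 nL into about 80 µL; one replicate is shown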
# Autofluor counter = counter-screen for toxin protease inhibitors: compound fluorescence | compound autofluorescence counterscreen, microsphere flow cytometry; hits give high values | fluorescence intensity (no concentration beside the values) | 3.1% of 360,000 active | AID 624483;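 active means at least 3 SD above the mean of all compounds, about 16000 in these data; inconclusive means too few beads counted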;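 further: 100 nL of 1 mM stock went into each well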
# Mtb hypoxia rep growth = recorded beside Mtb hypoxia rep, whose call it bears; growth inhibition, %; measured here: M. tuberculosis growth (absorbance);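 0% = vehicle and 100% = reference antibiotic; read after six days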
# The depositor's hits bear a star; ? = inconclusive; . = no result given.
# Order of values – Mtb hypoxia rep | BJeLR viability | Sa RN4220 lethal | Autofluor counter | Sa ugtP lethal | Mtb hypoxia rep growth | PrP 5UTR inh
O=C(Cn1c(=O)n(CC2CCCO2)c(=O)c2ccccc21)c1ccc(Cl)c(Cl)c1 (stereo unspecified)
  5 | -11 | 6.2 | 3358 | 1 | 10 | -7
Cc1ccc(NC(=O)N2CCN(c3ncccc3C(F)(F)F)CC2)cc1
  -7 | -4 | -9.5 | 5896 | -2 | -4 | -13
CC(C)COc1cccc(C(=O)N(CC(=O)Nc2ccccc2C(F)(F)F)Cc2ccco2)c1
  6 | . | 0.2 | 3394 | -4 | 7 | -5
CN(C)c1nc(NS(=O)(=O)c2ccc(Cl)cc2)nc(N(C)C)n1
  -7 | -3 | -0.3 | 16435* | -1 | -6 | -14
CCOC(=O)c1ccc(NC(=O)c2sc3nc(N4CCOCC4)c4c(c3c2N)CCCC4)cc1
  7 | 5 | 3.8 | 4141 | -16 | -3 | 2
CCO[C@@H]1OC(C(=O)N2CCOCC2)=C[C@H](c2cn(C(C)=O)c3ccccc23)[C@H]1CCCO
  . | 3 | . | 4062 | . | . | -27
COc1ccc(NC(=O)n2ncc3c(C)cccc32)cc1
  -6 | -6 | -7.3 | 3614 | -6 | 0 | -102
CN(C)c1ccc(S(=O)(=O)N2CCCCC2)cc1NC(=O)C1CSC2(C)CCC(=O)N12 (stereo unspecified)
  5 | . | -0.1 | . | 5 | 1 | -6
O=S(=O)(c1cccs1)N1CN(Cc2ccco2)c2nc3ccccc3nc21
  14 | 2 | 3.0 | 4266 | 18 | 8 | -28
Fc1ccccc1NC(=S)NNc1ncc(C(F)(F)F)cc1Cl
  -2 | 14 | 4.4 | 4861 | 5 | 7 | -19
Cc1cccc(OP(=O)(Oc2ccccc2)OC(c2ccccc2)C(F)(F)F)c1 (stereo unspecified)
  -1 | 3 | 2.9 | 2991 | -6 | 4 | -9
COc1ccc(NC(=O)Nc2nnc(N3CCC(C)CC3)s2)cc1OC
  4 | -2 | 3.1 | 6351 | 1 | 1 | -8
Cc1[nH]c2ccccc2c1C(=O)COC(=O)CCS(=O)(=O)c1ccccc1Cl
  -3 | 6 | -4.3 | 2732 | -8 | -4 | -10
COc1cccc(N2CCN(C(=O)c3cc4c(s3)CCCCC4)CC2)c1
  5 | . | 3.4 | 5837 | -8 | 8 | -19
COc1ccc(C(C)=NNC(=O)CNC(=O)Cc2ccccc2)c(OC)c1
  1 | . | 5.0 | . | 16 | -3 | .
COc1ccc(C2C(C(C)=O)=C(O)C(=O)N2c2ccc(O)cc2)cc1 (stereo unspecified)
  6 | -3 | 1.9 | 3554 | 2 | -1 | -20
COc1cc(OC)c(OC)cc1/C=N/n1c(-c2n[nH]c3c2CCC3)n[nH]c1=S
  . | 7 | . | 3032 | . | . | -10
Cc1ccc(S(=O)(=O)N(C)C(=NS(=O)(=O)c2ccccc2)c2ccccc2)cc1
  8 | . | 6.0 | . | 4 | 7 | .
Cc1ccc(CNC(=O)c2ccc[nH]2)cc1
  6 | 0 | 2.0 | 4666 | 8 | 11 | -29
COc1ccc(Cc2nc(-c3cccc(C)c3)no2)cc1
  . | -6 | 0.3 | 5194 | 30 | . | -54
COc1cccc(CN(Cc2ccco2)S(=O)(=O)c2ccc(S(=O)(=O)NCc3ccccc3)cc2)c1OC
  10 | -1 | 2.9 | 11560 | -8 | 11 | -22
COc1ccc(C(C(=O)NC2CCCC2)N(Cc2cccnc2)C(=O)Cc2cccs2)c(OC)c1 (stereo unspecified)
  11 | -5 | 0.9 | 3987 | -4 | 1 | -15
N=C1/C(=C\c2ccc(OC(=O)c3ccccc3Cl)cc2)C(=O)N=C2SC(N3CCOCC3)=NN12
  -3 | 4 | 1.9 | 5157 | -4 | 6 | -30
Cc1no[n+]([O-])c1COc1ccc(/C=C(\C#N)C(N)=O)cc1
  -3 | -3 | 2.3 | 2578 | 1 | 2 | -1
Cc1c(OCC(=O)NCCCN2CCOCC2)ccc2c3c(c(=O)oc12)CCC3
  -2 | 2 | 0.1 | 5110 | 3 | -12 | -9
Cc1cccc(-n2nnnc2SCC(=O)N(CC(C)C)c2c(N)n(CC(C)C)c(=O)[nH]c2=O)c1
  -5 | -2 | 9.1 | 4131 | 5 | 7 | -7
Cc1ccc(CSc2nn3c(=O)c(C)nnc3s2)cc1
  1 | 2 | -3.5 | 10565 | 7 | -3 | -33
COc1ccc(-n2c(SCC(=O)Nc3cc(C)on3)nc3ccccc3c2=O)cc1Cl
  16 | 7 | 9.9 | 3234 | 5 | 4 | -6
O=S(=O)(NN1CCOCC1)c1ccc(Br)s1
  -7 | -6 | -2.1 | 4241 | -1 | -15 | -10
COc1ccc(Oc2ccc(N/C=C3/CCCC3=O)cc2)cc1
  5 | -2 | -0.1 | 2570 | 2 | 5 | -9
C(=NNc1nc2ccccc2s1)c1ccco1
  15 | . | 4.1 | . | -14 | 5 | .
NC(=O)NC(CC(=O)NCCc1ccccn1)c1ccccc1Cl (stereo unspecified)
  -5 | 3 | -4.5 | 6118 | -3 | 11 | -14
O=C(COC(=O)c1nc(Cl)ccc1Cl)c1ccc(Cl)s1
  4 | 15 | 3.0 | 2221 | -5 | 6 | -4
Cc1ccc(C2CC(c3ccccc3)n3ncnc3N2)cc1 (stereo unspecified)
  . | -12 | 0.7 | 4347 | 2 | . | 16
CCOC(=O)c1c(N)sc(C(=O)N(CC)CC)c1C
  9 | 4 | 1.5 | 4632 | 4 | 8 | -11
Cn1cc(/C=N/NC(=O)c2ccc(C#N)cc2F)c2ccccc21
  . | 3 | . | 4319 | . | . | 2
CC1Cc2ccccc2N1C(=O)CON=Cc1ccccc1OC(F)F (stereo unspecified)
  3 | . | 2.2 | . | 4 | 8 | .
O=S(=O)(c1ccccc1C(F)(F)F)N1CCN(c2ncnc3sccc23)CC1
  4 | . | 20 | ? | -7 | 0 | 1
O=C(c1ccccc1OC(F)F)N1CCN(S(=O)(=O)c2ccc3c(c2)OCCCO3)CC1
  -6 | . | -6.3 | 3593 | -3 | -10 | -11
Cc1ccccc1C(=O)Nc1ccc(C(=O)N/N=C/c2ccc(F)cc2)cc1
  . | 5 | . | 5231 | . | . | 9
CC1CC(C)CN(C(=O)c2ccccc2Nc2ccc(SC(F)F)cc2)C1 (stereo unspecified)
  -2 | 2 | -1.2 | 9164 | -14 | 6 | -13
CC(OC(=O)c1cc(=O)[nH]c2ccccc12)c1ccccc1 (stereo unspecified)
  11 | 9 | 8.1 | 12844 | 0 | -2 | -38
CC1(C)CC(=O)C2=C(C1)OC(N)=C(C#N)C2c1ccc2c(c1)OCO2 (stereo unspecified)
  13 | -6 | 4.4 | 3654 | 16 | 5 | -19
COc1ccc(CNC(=O)c2cccc(NC3=NC4CS(=O)(=O)CC4S3)c2)cc1 (stereo unspecified)
  -5 | -17 | 8.9 | 5764 | 5 | -1 | -24
CC(C)CNC(=O)COc1ncnc2ccccc12
  -4 | -1 | -1.5 | 2596 | -7 | 6 | -1
CCCCn1c(N)c(N(CCOC)C(=O)C2CC(=O)N(c3cccc(SC)c3)C2)c(=O)[nH]c1=O (stereo unspecified)
  -12 | -5 | 1.3 | 5511 | 9 | -1 | -8
CC(NC(=O)Cn1cccc1C(=O)c1ccccc1)c1ccccc1 (stereo unspecified)
  12 | 0 | 2.5 | 5476 | 5 | 10 | -5
Cc1sc2nc(COC(=O)Cc3ccccc3)[nH]c(=O)c2c1C
  9 | -3 | 6.2 | 5763 | -7 | 9 | -41
COc1ccc2[nH]c(C)c(CCN(Cc3cccs3)C(=S)Nc3ccccc3)c2c1
  4 | 1 | 4.4 | 4012 | 1 | 8 | -9
O=C(N/C(=C\c1ccc2c(c1)OCO2)C(=O)N1CCOCC1)c1cccs1
  10 | 9 | 4.2 | 8014 | 10 | 4 | -19

# (cont.)
# Order of values – Mtb hypoxia rep | BJeLR viability | Sa RN4220 lethal | Autofluor counter | Sa ugtP lethal | Mtb hypoxia rep growth | PrP 5UTR inh
CCCn1cc(S(=O)(=O)c2ccccc2)c(=O)c2cc(F)c(N3CCN(C)CC3)cc21
  8 | 0 | 3.7 | 6082 | 2 | 12 | 3
COC(=O)C1=C(c2ccccc2OCc2ccccc2)CC2CCC1N2C(=O)NCc1ccc(Br)cc1 (stereo unspecified)
  19 | . | -12 | . | 7 | 7 | .
COC(=O)C1=C(COc2ccccc2)NC(=O)NC1c1ccc(Cl)cc1 (stereo unspecified)
  3 | -2 | 8.1 | . | 9 | 6 | .
COC(=O)c1cccc(C23CC4(C2)C(CN(Cc2ccc(-c5ccccc5)cc2)C4c2ccccc2)C3c2ccc(C(F)(F)F)cc2)c1 (stereo unspecified)
  19 | . | 6.4 | . | 3 | 8 | .
CC1CCc2c(nc3ncnn3c2N2CCN(c3ccccc3)CC2)C1 (stereo unspecified)
  7 | 0 | 1.5 | 4269 | -5 | 13 | -2
CCn1c(=O)c(C(=O)CN2CCN(S(=O)(=O)c3cc(C)ccc3C)CC2)c(N)n(Cc2ccccc2)c1=O
  1 | 9 | -5.8 | 2406 | -6 | 2 | -9
O=C1c2ccccc2S(=O)(=O)N1Cc1c(F)cccc1Cl
  4 | 5 | 2.9 | 4792 | 1 | -3 | -1
COc1ccccc1C(=O)Nc1cc2ccccc2oc1=O
  . | -12 | -0.7 | 2949 | 1 | . | -74
CC(C)CN1C(=O)C(=O)N(CC(=O)NCc2ccc3c(c2)OCO3)C1=O
  -6 | -2 | 25 | 2483 | 17 | -14 | -13
CCCN1CCN(CCCNC(=O)C2CCN(c3nnc(-n4c(C)ccc4C)s3)CC2)CC1
  -3 | -3 | -1.8 | 5202 | -7 | 6 | 3
O=C(CNC(=O)c1sc2ccccc2c1Cl)NCc1cccnc1
  9 | 5 | 1.2 | 5687 | 1 | 17 | -10
Cc1cccc(-n2cnc3cc(C(=O)N4CCCCC4)ccc32)c1
  9 | 3 | 2.1 | 7604 | 10 | 5 | -22
OCCNc1ncnc2c1sc1nc(N3CCOCC3)c3c(c12)CCC3
  16 | -5 | 4.0 | 4235 | 6 | 3 | -29
O=C(NC(=S)NC1CCSC1=O)c1cccc([N+](=O)[O-])c1 (stereo unspecified)
  3 | 1 | 3.3 | 5081 | 3 | -7 | -19
CCCN(CC(=O)Nc1ccccc1C)C(=O)C1CC(=O)N(c2cccc(C)c2C)C1 (stereo unspecified)
  4 | -4 | 1.7 | 6029 | 3 | 1 | -9
CSc1ccc(C=NNC(=O)CN2CCN(Cc3ccc(Cl)cc3)CC2)cc1
  3 | . | -1.2 | . | -10 | 4 | .
NC(=O)c1c(NC(=S)Nc2ccc(F)cc2)sc2c1CCCC2
  0 | -22 | 2.1 | 2445 | -8 | -14 | -30
CCOC(=O)CCNC(=O)Nc1ccc2nc(C)n(Cc3cccc(Cl)c3)c(=O)c2c1
  2 | 3 | -0.1 | 10453 | -3 | 4 | -28
O=C(C1CCCC1)N1CCC(CC2CC(c3cccc(Br)c3)=NO2)(C(=O)NCC2CCCCC2)CC1 (stereo unspecified)
  -3 | -4 | -2.8 | 3821 | -20 | 14 | -4
Cc1nn(-c2ccc(F)cc2)c(C)c1CN1CCN(CCc2ccccc2)C(CCO)C1 (stereo unspecified)
  -1 | 4 | 0.8 | 5364 | 20 | 8 | -4
COc1ccc(S(=O)(=O)NC(C)C(=O)N2CCCC2)cc1C (stereo unspecified)
  9 | -3 | 4.2 | 3916 | 7 | 1 | -46
